# Rango release inh: qHTS Assay for Inhibitors of RanGTP induced Rango (Ran-regulated importin-beta cargo) - Importin beta complex dissociation; Biochemical FRET Rango-importin beta, RanGTP-induced dissociation; 340,000 tested, 0.071% active; Potency, µM (highest dose often 46.1 µM), inactives show top-dose activity change, negative = inhibition; AID 540253, 2011; Snurportin-1 (Homo sapiens) + GTP-binding nuclear protein Ran (Homo sapiens) + Importin …; active means falling FRET ratio curve, often poorly fitted, with flat reads before Ran was added; inconclusive means other falling curves, or compound fluorescence or quenching; inactive means flat or rising ratio curve;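 also: potency is read from the fitted curve at half-maximal effect; % of control where 0% means no effect; nearly all actives have a fitted effect of over 45% in size; -100% = wells without RanGTP and RCC1; the record marks most hits as doubtful in a second field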
#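 Two FRET readings bracket the reaction: one 5 min after compound meets Rango–importin beta, another 45 min after RanGTP-RCC1 (0.6 uM Ran, 0.2 uM RCC1, 2 mM GTP) is added. Only the second defines inhibition.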
# GLA inh pH 4.5: qHTS Assay for Inhibitors of Human alpha-Galactosidase at pH 4.5; purified enzyme, 4-MU-alpha-Gal fluorescence, pH 4.5; 230,000 tested, under 10 active; activity change, negative = inhibition, % at 105 µM; inconclusive = small, poorly fitted or top-dose-only inhibition, or a rising curve; inactive = flat fitted curve, though single readings scatter; no compound was filed as active;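 also: 0% = full activity with enzyme and -100% = basal without enzyme; dose as in the result columns while the protocol names 77 µM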
# Target sequence (P06280 whole entry, looked up): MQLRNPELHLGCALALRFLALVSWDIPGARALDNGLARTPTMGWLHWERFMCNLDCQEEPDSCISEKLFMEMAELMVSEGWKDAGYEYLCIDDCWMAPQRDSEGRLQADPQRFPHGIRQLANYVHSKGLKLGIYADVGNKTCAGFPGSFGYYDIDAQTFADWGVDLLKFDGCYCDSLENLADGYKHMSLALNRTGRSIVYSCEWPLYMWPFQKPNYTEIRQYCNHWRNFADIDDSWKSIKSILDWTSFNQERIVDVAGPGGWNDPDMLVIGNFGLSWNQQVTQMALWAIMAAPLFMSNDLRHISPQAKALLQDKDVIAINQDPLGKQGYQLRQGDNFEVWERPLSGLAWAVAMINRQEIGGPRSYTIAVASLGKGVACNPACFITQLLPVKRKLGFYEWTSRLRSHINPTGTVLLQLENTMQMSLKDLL
# miR-21 reporter: qHTS Assay for Modulators of miRNAs and/orActivators of miR-21 | HeLa miR-21 FLuc reporter, luciferase, 48 h | Potency, µM (series often up to 38.3 µM), for the others: at the top dose reporter change, positive = more light | 340,000 tested, under 10 active | AID 2288, 2010; active = well fitted rising curve with a large enough effect; inconclusive = small, poorly fitted or top-dose-only effect; inactive = no such curve, though single readings can be large or run the other way;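 also: % of control where 0% means no effect; miR-21 action dims this reporter so a rising signal means less miR-21 action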
#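 Using DMEM plus 10% FBS, HeLa miR-21-FLuc cells are incubated with test compounds (final up to about 40uM) for 48 hours; firefly luciferase signal is then imaged following reagent-mediated lysis.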
# Rango complex inh: qHTS Assay for Inhibitors of Rango (Ran-regulated importin-beta cargo) - Importin beta complex formation | 340,000 tested, 0.031% active | Rango CFP/YFP FRET sensor + importin beta, 45 min | AID 540263, 2011 | Potency, µM (highest dose often 92.2 µM), for the others: at the highest dose inhibition of complex formation | Importin subunit beta-1 (Homo sapiens), Q14974; active = rising FRET ratio curve, often small or poorly fitted; inconclusive = mostly compound fluorescence or quenching in the first reads; inactive = flat curves in all reads;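 also: potency is read from the fitted curve at half-maximal effect; 0% = DMSO wells and 100% = buffer wells lacking importin beta; nearly all actives have a fitted effect of over 15% in size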
#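 FRET biosensor (snurportin 1 IBB flanked by EYFP and cerulean), 50 nM, with compound 5 min, then 0.125 microM importin beta in PBS, 1 mM DTT, 0.02% Tween-20, 0.1% BSA. CFP/YFP ratio read after 45 min at room temperature; pre-read flags interference.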
# * = called active by the depositor; ? = inconclusive; . = no result given; & = joins results of further samples; [ ] = another dose, or the depositor's remark. This is a subset, so the mix of outcomes need not match the whole.
# Screens in order: Rango release inh	GLA inh pH 4.5	miR-21 reporter	Rango complex inh
O=C(C1CCC(=O)N(C2CCCC2)C1)N1CCC(Oc2cccc(F)c2)CC1 (stereo not given)
    9%	.	-1%	3.8%
COc1ccc(-n2nc3cc(C)c(NC(=S)NC(=O)c4ccccc4C)cc3n2)cc1
    -16%	-1	-49%	5.4%
CCn1c(SCC(=O)n2nc(C)cc2C)nnc1-c1ccc2c(c1)OCO2
    -11%	1	4%	-2.2%
NC1=NC(=O)C(Cc2cc(Cl)ccc2Cl)S1 (stereo not given)
    17%	-1	-37%	2.7%
COC(=O)[C@H](C)N1C/C=C\COc2c(Cl)cc(Cl)cc2S1(=O)=O
    3%	.	.	?
CCOC(=O)c1c(NC(C)=O)no[n+]1[O-]
    19%	-14	-10%	-2.6%
NC(=O)C1CC(=O)N(c2ccc(OCc3c(Cl)cccc3Cl)cc2)C1 (stereo not given)
    -1%	1	-11%	0.4%
COc1ccc(OCC(Cn2cnc3ccccc32)OC(C)=O)cc1 (stereo not given)
    -5%	?	-19%	0.1%
Cc1cc(C)nc(SCC(=O)Nc2ccnc3ccccc23)n1
    -10%	-3	13%	-3.1%
CCC(=O)N1CCN(c2nc(C)nc3sc(C)c(C)c23)CC1
    1%	7	-1%	-0.6%
CC1CN(S(=O)(=O)c2cccc(C(F)(F)F)c2)C(C)N1C(=O)N1CCOCC1 (stereo not given)
    -15%	.	1%	-1.5%
C=CC[C@]12C=C(OC)C(=O)C(OC)=C1O[C@@H](c1ccc3c(c1)OCO3)[C@H]2C
    -18%	.	.	-1.7%
O=C(Cc1ccc(NC2=NC3CS(=O)(=O)CC3S2)cc1)NCc1ccc(Cl)cc1 (stereo not given)
    14%	.	-4%	-2.2%
CC1CCN(C(=O)COC(=O)c2cc3ccccc3oc2=O)CC1
    -10%	.	.	-1.6%
CN(C)C(CNC(=O)c1cccc(C(F)(F)F)c1)c1ccco1 (stereo not given)
    0%	.	-6%	3.2%
CCOC(=O)CCCNC(=O)COC(=O)c1cc(C)cc(C)c1
    5%	-4	-7%	4.1%
C=CCSc1nccc(-c2nn(-c3ccc(C)cc3)ccc2=O)n1
    -1%	1	22%	0.4%
CC(C)(C)n1nnnc1C(c1ccncc1)N(Cc1ccccc1)Cc1ccco1 (stereo not given)
    -11%	-6	0%	2.2%
CCCCNC1=C(Br)C(=O)CC(C)(C)C1
    -8%	7	-2%	2.3%
Cc1ccc(S(N)(=O)=O)c(C)c1-n1cnnn1
    3%	-4[21.1 µM]	2%	-0.1%
CCCC(=O)NCCc1nc2cc([N+](=O)[O-])ccc2n1C
    13%	0	-5%	0.1%
COc1ccccc1-n1cc(CN2CCCC(CO)(Cc3cccc(Cl)c3)C2)cn1 (stereo not given)
    -10%	-13	2%	0.3%
CC(=O)NCCC(=O)N1CCCC(CNC(=O)c2ccc(-c3ccccc3)cc2)C1 (stereo not given)
    1%	-7	-21%	-3.5%
Cc1ccsc1/C=c1\sc2ncnn2c1=O
    8%	3	2%	-2.0%
O=C(COC(=O)/C=C/c1ccc(Cl)c(Cl)c1)NC1CC1
    0%	.	.	2.0%
Cc1cc(C)nc(SCc2ccc(Cl)cc2)n1
    35%	.	-12%	0.1%
NC(=O)NC(=O)C(OC(=O)CCNS(=O)(=O)c1ccccc1)c1ccccc1 (stereo not given)
    -2%	.	.	-2.9%
O=C(N/N=C/c1ccco1)C(O)c1ccccc1 (stereo not given)
    17%	-5	0%	-0.6%
COC(=O)C1C(=O)c2c(C)noc2CC1(C)C (stereo not given)
    -4%	0	-7%	0.3%
O=C(c1cccc(Oc2c(Cl)cccc2[N+](=O)[O-])c1)N1CCOCC1
    -16%	.	-14%	-0.1%

# Just Rango release inh and miR-21 reporter, for some of the entries so far:
SMILES | Rango release inh | miR-21 reporter
CC(=O)NCCC(=O)N1CCCC(CNC(=O)c2ccc(-c3ccccc3)cc2)C1 (stereo not given) | 1% | -21%
COc1ccc(OCC(Cn2cnc3ccccc32)OC(C)=O)cc1 (stereo not given) | -5% | -19%

# Back to the main list with the 2 entries that preceded the break.
# Screens in order: Rango release inh	GLA inh pH 4.5	miR-21 reporter	Rango complex inh
COC(=O)C1C(=O)c2c(C)noc2CC1(C)C (stereo not given)
    -4%	0	-7%	0.3%
O=C(c1cccc(Oc2c(Cl)cccc2[N+](=O)[O-])c1)N1CCOCC1
    -16%	.	-14%	-0.1%
O=C(NC(=S)Nc1ccc(CN2CCOCC2)cc1)c1ccc(-c2ccc(Br)cc2)o1
    -19%	0	-14%	0.3%
COc1cccc(NC(=S)Nc2cc(C(=O)O)ccc2N2CC3CC(C2)c2cccc(=O)n2C3)c1 (stereo not given)
    9%	3	-27%	0.6%
COC(=O)CNC(=O)CSc1nc(N)cc(=O)[nH]1
    6%	-2	-1%	-2.1%
CC(C)(O)CC[C@@H](O)[C@](C)(O)[C@H]1CC[C@@]2(O)C3=CC(=O)[C@@H]4C[C@@H](O)[C@@H](O)C[C@]4(C)[C@H]3CC[C@]12C
    -16%	.	-1%	-3.8%
CC(=O)c1cccc(NC(=O)Nc2cccnc2)c1
    -11%	5	20%	0.0%
O=[N+]([O-])c1ccc(Cl)c(/C=N/n2c(-c3cccnc3)n[nH]c2=S)c1
    .	4	-2%	.
Cc1ccc(CCNC(=O)C2CCCN(S(=O)(=O)c3cccc4nsnc34)C2)cc1 (stereo not given)
    -2%	4	0%	-0.3%
O=C1c2ccccc2C(=O)N1CCCn1nnc(-c2ccc(N3CCOCC3)cc2)n1
    -9%	5	0%	-2.2%
O=C(c1ccccc1Sc1ccccc1[N+](=O)[O-])N1CCCCC1
    -7%	-9	1%	3.7%
C=CCN(C(=O)c1ccccc1)c1ccc(OC)cc1
    -10%	3	9%	-3.7%
O=C(c1ccc(F)cc1)c1c[nH]c(C(=O)NCc2ccco2)c1
    -5%	5	-7%	-1.3%
Cc1ccccc1C[n+]1cccc2ccccc21
    -14%	.	.	-2.2%
O=S(=O)(c1ccc(-c2cn3ccccc3n2)cc1)N1CCOCC1
    -2%	-4	-16%	-0.7%
CC(C)Oc1ccc(Cc2cnc(=S)[nH]c2N)cc1
    -18%	-4	-6%	-4.1%
CC1CCN(CC(=O)Nc2ccc(S(=O)(=O)N3CCC(C)CC3)cc2)CC1
    0%	.	13%	4.6%
CC(=O)N1C(=O)/C(=C2\SC(=S)N(NC(=O)c3ccc(O)cc3)C2=O)c2ccccc21
    -10%	1	4%	0.0%
Cc1ccc(/C=N/n2c(C3CCCCC3)n[nH]c2=S)s1
    -3%	7	-12%	0.7%
Cc1cnc(C(=O)OCC(=O)Nc2cc(-c3cc(C)c(C)cc3C)nn2-c2ccccc2)cn1
    5%	.	.	1.3%
CC(=O)Nc1ccc(S(=O)(=O)NCCC(=O)N2CCc3ccccc32)cc1
    1%	.	2%	5.1%
CC1(c2ccccc2)NC(=O)N(CC(=O)NNC(=O)c2cccc(Cl)c2)C1=O (stereo not given)
    -8%	.	.	-0.5%
Cc1cc(NC(=O)c2ccc(F)c(S(=O)(=O)N3CCCCC3)c2)no1
    1%	.	0%	2.4%
COc1ccc(S(=O)(=O)N2CCC3(CC2)OCCN3S(=O)(=O)c2ccc(C)cc2)cc1OC
    -10%	.	.	-0.4%
O=C1CCc2cc(S(=O)(=O)N3CCC(C(=O)Nc4nccs4)CC3)ccc2N1
    -8%	-7	-8%	4.3%
Cc1ccccc1-c1noc(-c2ccc(O)cc2)n1
    23%	4	0%	2.0%
COc1ccccc1C(=O)NCCN1CCN(C(=O)c2ccccc2OC)CC1
    -1%	4	-1%	0.8%
CC(C)/C=N/NC(=O)c1cc(Br)ccc1O
    -13%	-4	3%	0.9%
CCOC(=O)c1ccccc1NC(=O)Cc1ccccc1OC
    11%	5	-16%	-3.9%
COc1ccc(OCCn2c(C)c(/C=N/n3cnnc3)c3ccccc32)cc1
    -7%	2	-14%	0.9%
CCOc1ncccc1C(=O)OCC(=O)Nc1c(C)cc(C)cc1C
    6%	5	-5%	-0.8%
CC1CCCC(NC(=O)CN(C)S(=O)(=O)c2cccc3cccnc23)C1C (stereo not given)
    -14%	-1	-2%	-4.9%
CCCCn1c(NCc2ccc(N(C)C)cc2)nc2ccccc21
    -5%	-18	5%&-2%	3.6%
Cc1cc(NC(=O)CSc2nc3c(C)cccc3cc2C)no1
    -10%	.	1%	11%
COc1ccc(S(=O)(=O)N2CCC(C(=O)NCCC(=O)NCc3cccc(OC)c3)CC2)cc1
    ?	.	0%	-0.3%
N=c1c2c3c(sc2ncn1CCN1CCOCC1)CCCCC3
    -4%	4	-17%	2.6%
Cc1cccn2c(=O)c3cc(C(=O)NC4CCCCC4C)n(C)c3nc12 (stereo not given)
    15%	.	-6%	-4.9%
C=CCn1c(CCC)nc2ccccc21
    -2%	-1	-6%	0.1%
COC(=O)c1c(NC(=O)C2COc3ccccc3O2)sc2c1CCN(C(C)=O)C2 (stereo not given)
    -20%	-22	13%	?
CC(C)OC(=O)CSc1nnc(Cc2ccccc2)n1C
    -3%	11	-3%	-1.0%
COc1ccc(OC)c(NC(=O)CN(Cc2ccc(F)cc2)C2CCCCC2)c1
    -5%	.	28%	-0.2%
CCCc1ccc(S(=O)(=O)N2CCN(Cc3ccco3)CC2)cc1
    24%	.	0%	0.2%
Nc1c(S(=O)(=O)c2cccs2)c2nc3ccccc3nc2n1CC1CCCO1 (stereo not given)
    -23%	?	0%	-4.9%
NC(=O)Nc1ccccc1C(=O)Nc1ccc2ccccc2c1
    14%	.	-18%	-4.7%
COc1ccc2c(c1)C(=O)c1ccccc1CO2
    12%	-2	-56%	-3.8%
Cc1ccc(OCc2nnc(NC(=O)c3ccco3)s2)cc1
    2%	2	-3%	-5.6%
CCOC(=O)c1ccc(NC(=O)NCc2ccccc2OC)cc1
    -7%	-13	2%	4.1%
Cc1noc(NS(=O)(=O)c2ccc(NC(=O)/C=C/c3ccccc3)cc2)c1C
    -9%	.	.	-0.5%
CCOc1cc(C(=O)N2CCN(c3ccccc3)CC2)cc(OCC)c1OCC
    -11%	-7	-5%	1.2%
CCn1c(=O)cc(SCC(=O)Nc2ccc(C)cn2)c2ccccc21
    -8%	-2[21.1 µM]	7%	-1.1%
CCOc1ccc(-c2nc(CSc3nnc(C)s3)cs2)cc1OC
    10%	-7	-28%	-1.5%
O=C(CCCNS(=O)(=O)c1ccc(F)cc1)Nc1ccc(F)cc1
    -14%	.	0%	3.1%
Cc1cccc(/C(N)=N/OC(=O)CCCc2ccccc2)c1
    -9%	.	-32%	-1.7%
Cc1cccc(CSc2ccc(S(=O)(=O)N3CCCC3)cn2)c1
    -8%	.	.	0.7%
Nc1nnc(-c2ccccc2[N+](=O)[O-])o1
    -16%	-3	3%	-4.5%
Clc1ccc(-n2nnc(-c3nccs3)n2)cc1Cl
    -11%	7	-59%	1.3%
CCCCn1nc2cc(C(=O)NCc3ccc(C(F)(F)F)cc3C(F)(F)F)ccc2c1OCC
    ?	-9	-2%	1.5%
Cc1c2ccccc2nc2c(F)c(NC(C)C)c(F)c(F)c12
    ?	-16	-68%	?
Cc1nc(CC(=O)N2CCN(S(=O)(=O)c3ccccc3C#N)CC2)cs1
    -7%	-2	1%	0.0%
Cc1ccc(OCCC(=O)OC(C)C(=O)NC2CC2)cc1 (stereo not given)
    9%	.	.	-2.8%
Cc1ccc(N(Cc2ccc([N+](=O)[O-])cc2)C(=O)c2ccco2)cc1
    -7%	0	-5%	-0.6%
CSCC(=O)Nc1nc(-c2ccc3c(c2)OCCO3)cs1
    7%	4	-24%	2.5%
